High-throughput results from PubChem BioAssay.
BJeLR viability = kills HRASV12-expressing BJeLR cells; BJeLR (HRASV12) viability, CellTiter-Glo ATP luminescence, 48 h; reference of the scale not given here; actives 0.17% (n = 300,000); inhibition, % (test concentration not listed);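 active = replicate mean above 50%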;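 note: 50 nL library stock added to about 25 µL; numbers are from one replicate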
RN4220 kill = kills Staphylococcus aureus RN4220; S. aureus RN4220 growth, OD600, 16 h; inhibition, % (concentration not given with the values); actives 0.33% (n = 330,000); AID 1259311;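 active = z-score of -3 or lower and OD600 up to 0.18 on both plates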;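 note: plate controls were untreated cells for no effect and reference antibiotic for full effect; stock transfer was 100 nL into about 80 µL; one replicate is shown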
Bead autofluor = compound fluorescence in toxin protease inhibitor counterscreen; compound autofluorescence counterscreen, microsphere flow cytometry; active compounds read high; fluorescence intensity (concentration not given with the values); actives 3.1% (n = 360,000);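 active = at least 3 SD above the mean of all compounds, about 16000 in these data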;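 note: 100 nL of 1 mM stock went into each well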
PrP 5UTR inh = suppresses PrP 5' UTR mRNA reporter expression | actives 0.35% (n = 340,000) | cell-based PrP 5' UTR mRNA reporter, plate reader | inhibition, % (concentration not given with the values);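 active = every replicate at 50% or more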;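 note: 0 = median of the neutral control wells; tested in H4 reporter cells; numbers are from one replicate; inactives centre near -14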
ugtP null kill = compounds lethal to S. aureus RN4220 ugtP deletion mutant; OD600 growth, 16 h; some inactives read as strong as hits; growth inhibition, % (concentration not given with the values); actives 0.54% (n = 330,000);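 active = z-score under -3 and OD600 up to 0.15 on both plates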;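 note: plate controls were untreated wells for no effect and antibiotic for full effect; wells of about 80 µL received 100 nL stock; the first replicate is given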
Mtb hypoxia inh = Mtb hypoxia fluorescent reporter inhibition | M. tuberculosis hypoxia-regulated fluorescent reporter, fluorescence | fluorescence inhibition, % (concentration not given with the values) | actives 0.1% (n = 300,000) | AID 1159583;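 active = 35 to 45% if threefold the growth effect, above 45% if 1.5-fold the growth effect; inactive = the rest, general growth blockers included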;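 note: wells of about 50 µL received 100 nL stock; 0% = vehicle wells and 100% = reference inhibitor wells; whole bacteria with a GFP reporter of the hypoxia response; strong numbers were not always called active; many hits fall short of the cut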
Mtb hypoxia inh growth = recorded beside Mtb hypoxia inh, whose call it bears; growth inhibition, %; measured here: M. tuberculosis growth (absorbance);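 0% = vehicle and 100% = reference antibiotic; read after six days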
* marks the source's active call; other numbers are inactive results; nt = not tested or not shown.

#	Molecule	BJeLR viability	RN4220 kill	Bead autofluor	PrP 5UTR inh
1	COc1ccc(Cl)cc1C(=O)OCC(=O)NCCNC(=O)COC(=O)c1cc(Cl)ccc1OC	-8	6.5	5847	-11
2	Cc1ccc(/C=C/C(=O)N2CCCC(C(N)=O)C2)o1 (stereo not drawn)	1	0.0	5982	-22
3	NC(=O)c1ccc(NC(=O)COC(=O)c2c3c(nc4ccccc24)/C(=C\c2cccs2)CCC3)cc1	-2	-2.9	2004	-16
4	COc1ccc(C(=O)ON=C2c3ccccc3-c3ccccc32)cc1OC	-1	1.6	1984	-39
5	COC(=O)C1N[C@@H]([C@@H](NC(=O)COc2ccccc2)C(=O)Nc2ccc(OC)cc2)SC1(C)C (stereo partly drawn)	6	nt	3707	-21
6	c1ccc(Nc2nc(NCc3ccco3)c3ccccc3n2)cc1	3	-10	4299	-14
7	CC(=O)c1c(C)[nH]c(C(=O)OCC(=O)NNC(=O)c2ccc([N+](=O)[O-])cc2)c1C	nt	5.7	3085	-8
8	O=C(O)C1C2C=CC3(O2)C1C(=O)N1c2ccccc2C2OCCC2C13 (stereo not drawn)	-4	3.7	7015	3
9	Cc1ccc(NC(=O)C2=C(C(=O)O)CCCC2)cc1F	0	6.1	3446	-17
10	COc1cc(OC)c(OC)cc1/C=N/NC(=O)c1ccc2nc[nH]c2c1	-6	nt	5368	-26
11	NNC(=O)CC1NCCN(Cc2ccccc2)C1=O (stereo not drawn)	7	4.6	2898	nt
12	CCOc1ccc(Cc2nc(N)nc(N)n2)cc1	-13	2.1	5850	-12

#	ugtP null kill	Mtb hypoxia inh	Mtb hypoxia inh growth
1	8	16	1
2	5	3	-3
3	-19	7	4
4	-4	18	3
5	nt	nt	nt
6	-47	-22	-17
7	4	5	6
8	6	4	-5
9	3	2	14
10	nt	nt	nt
11	12	6	-1
12	6	6	3

Given with each value named: part of the list above.
6: c1ccc(Nc2nc(NCc3ccco3)c3ccccc3n2)cc1
  BJeLR viability: 3 | RN4220 kill: -10 | Bead autofluor: 4299 | PrP 5UTR inh: -14 | ugtP null kill: -47 | Mtb hypoxia inh: -22 | Mtb hypoxia inh growth: -17
7: CC(=O)c1c(C)[nH]c(C(=O)OCC(=O)NNC(=O)c2ccc([N+](=O)[O-])cc2)c1C
  BJeLR viability: nt | RN4220 kill: 5.7 | Bead autofluor: 3085 | PrP 5UTR inh: -8 | ugtP null kill: 4 | Mtb hypoxia inh: 5 | Mtb hypoxia inh growth: 6

New compounds follow.
#	Molecule	BJeLR viability	RN4220 kill	Bead autofluor	PrP 5UTR inh
13	CCOc1ccc(NC2=NCCC(=O)N2Cc2cccs2)cc1	5	16	8329	-11
14	CCCCc1cc(=O)oc2c(C)c(OCC(=O)N3CCCC3)ccc12	5	-2.2	nt	20
15	CN1C(=O)C(CC(=O)Nc2ccc(Cl)cc2)N(Cc2ccco2)C1=S (stereo not drawn)	-5	0.6	4715	-8
16	Cn1c(Cc2ccc3c(c2)OCO3)nnc1SCC(=O)NC(C)(C)C	4	nt	6193	-10
17	COc1ccc(CCNC(=O)C2CCN(Cc3nc(-c4cccc(Cl)c4)oc3C)CC2)cc1OC	15	4.4	6376	-4
18	O=C(CC(=O)N1CCN(c2ccccn2)CC1)Nc1ccc2nc3n(c(=O)c2c1)CCCCC3	-5	6.1	5540	-36
19	COc1cc([N+](=O)[O-])c2nccnc2c1	4	0.5	4940	-16
20	COc1ccc(NC(=S)NCC(c2cccnc2)N2CCOCC2)cc1 (stereo not drawn)	6	2.7	2005	-13
21	COC(=O)CNC(=O)C1CCN(c2nc(C)cc(C)n2)CC1	-2	2.3	10137	-29
22	CCOc1ccc(C2CC(c3cccc(OC)c3)Nc3ncnn32)cc1 (stereo not drawn)	-2	-1.3	6145	-15
23	COc1ccc(N2CC(C(=O)Nc3nnc(SCc4cccnc4)s3)CC2=O)cc1 (stereo not drawn)	-1	1.7	nt	-21
24	O=C(NC(Cc1ccccc1)C(=O)O)OCc1ccccc1 (stereo not drawn)	-3	-1.7	5793	-11

#	ugtP null kill	Mtb hypoxia inh	Mtb hypoxia inh growth
13	10	-8	4
14	-11	0	-5
15	-4	-4	-6
16	nt	nt	nt
17	-6	-4	13
18	-8	-1	3
19	-1	-2	15
20	2	1	1
21	6	2	6
22	-1	nt	nt
23	7	3	-24
24	-9	-8	-2

The final two compounds of the part above open the next one:
#	Molecule	BJeLR viability	RN4220 kill	Bead autofluor	PrP 5UTR inh
23	COc1ccc(N2CC(C(=O)Nc3nnc(SCc4cccnc4)s3)CC2=O)cc1 (stereo not drawn)	-1	1.7	nt	-21
24	O=C(NC(Cc1ccccc1)C(=O)O)OCc1ccccc1 (stereo not drawn)	-3	-1.7	5793	-11
25	Cc1nn(-c2ccccc2)c(Cl)c1CN(C(=O)CCl)c1ccc(Cl)cc1	133*	26	9095	-20
26	CCn1c(=O)c2c(nc3n2CCCN3c2cccc(C)c2)n(C)c1=O	0	2.0	4058	-15
27	Cc1cc2c3c(c1)C1(C(=O)N3C(C)(C)CC2C)C(C#N)=C(N)Oc2cc(O)ccc21 (stereo not drawn)	5	-3.4	8000	-45
28	CC1=C(C(N)=O)C(c2cccs2)n2nc(-c3cccc(Cl)c3)nc2N1 (stereo not drawn)	-6	-1.1	6794	3
29	Cc1cccc(CS(=O)(=O)Cc2ccc(C(=O)NCCCN3CCOCC3)o2)c1	-2	5.4	2148	-8
30	CCOCc1cc(C)[nH]c(=O)c1C#N	9	1.1	4301	4
31	COc1ccc(/C=C2\CCOC2=O)cc1	1	0.5	3047	-15
32	O=C(CCn1c(=O)oc2ccccc21)N1CCN(C(c2ccccc2)c2ccccc2)CC1	-2	-1.4	4156	6
33	COC(=O)CN1C(=O)[C@H]2[C@@H](/C=C/c3ccccc3)N3C(=O)CN(CCO)C(=O)[C@@]3(Cc3ccccc3)[C@H]2C1=O	5	nt	3064	-8
34	CCCCCN(C(=O)CCC(=O)OCC(=O)N(C)Cc1ccc(C)cc1)c1c(N)n(CCCC)c(=O)[nH]c1=O	-6	-2.6	4492	-1
35	CC(OC(=O)CNC(=O)c1cccs1)C(=O)Nc1ccc(S(N)(=O)=O)cc1 (stereo not drawn)	5	1.9	4200	-2
36	Cn1c(=O)[nH]c(=O)c2c1nc(CN(Cc1ccccc1)Cc1ccccc1)n2CCN1CCOCC1	-8	4.5	8137	16

#	ugtP null kill	Mtb hypoxia inh	Mtb hypoxia inh growth
23	7	3	-24
24	-9	-8	-2
25	-1	22	13
26	7	6	-6
27	-7	3	2
28	-2	1	11
29	-1	7	7
30	-4	nt	nt
31	-1	0	0
32	27	-4	6
33	nt	nt	nt
34	-1	-4	11
35	2	-4	-4
36	4	5	1

More structures follow:
#	Molecule	BJeLR viability	RN4220 kill	Bead autofluor	PrP 5UTR inh
37	O=C(CNC(=O)c1ccc2c(c1)OCCO2)N=Nc1c(O)[nH]c2ccccc12	2	4.8	5838	-7
38	Nc1nnn(CC(=O)NN=Cc2ccncc2)n1	nt	1.3	nt	nt
39	CCn1c(Cn2nnc(-c3ccccc3)n2)nnc1SCC(=O)Nc1ccc(N(C)C)cc1	4	6.0	13103	0
40	CC(=O)c1cccc(N(CC(=O)Nc2ccc(S(=O)(=O)N3CCOCC3)cc2)S(C)(=O)=O)c1	-4	1.5	5599	-4
41	O=S(=O)(Cc1ccc(Cl)cc1)c1ncc(CO)n1Cc1ccccc1	3	5.6	4313	-15
42	COc1ccccc1NS(=O)(=O)c1cccc(C(=O)NNC(=O)C(NC(N)=O)C(C)C)c1 (stereo not drawn)	2	5.8	4297	-83
43	O=C(NN1C(=O)c2ccccc2NC1c1ccccn1)c1ccc([N+](=O)[O-])cc1 (stereo not drawn)	13	15	7258	-13
44	CCOC(=O)c1c(C)n(-c2ccc(C)cc2)c2c(CC(C)=O)c(Br)c(OC)c(O)c12	10	3.7	3543	-4
45	Cc1sc2ncnc(OCc3nnc(-c4cccs4)o3)c2c1C	nt	5.9	4557	-23
46	Cc1[nH]nc(N2CCCCCC2)c1[N+](=O)[O-]	-2	12	3313	0
47	O=S(=O)(Oc1ccccc1C(=S)N1CCOCC1)c1ccc(Cl)cc1	0	9.2	4188	-12
48	O=C(CSc1nnc(-c2cccs2)o1)NCc1ccco1	9	7.1	4268	-23

#	ugtP null kill	Mtb hypoxia inh	Mtb hypoxia inh growth
37	3	2	7
38	0	2	5
39	3	-2	-4
40	2	-7	4
41	8	9	5
42	1	9	-1
43	-3	-4	3
44	2	nt	nt
45	7	17	4
46	-2	3	11
47	5	8	0
48	5	16	5

Entries shown so far containing a COOH group, in the order listed:
#	Molecule	BJeLR viability	RN4220 kill	Bead autofluor	PrP 5UTR inh
8	O=C(O)C1C2C=CC3(O2)C1C(=O)N1c2ccccc2C2OCCC2C13 (stereo not drawn)	-4	3.7	7015	3
9	Cc1ccc(NC(=O)C2=C(C(=O)O)CCCC2)cc1F	0	6.1	3446	-17
24	O=C(NC(Cc1ccccc1)C(=O)O)OCc1ccccc1 (stereo not drawn)	-3	-1.7	5793	-11

#	ugtP null kill	Mtb hypoxia inh	Mtb hypoxia inh growth
8	6	4	-5
9	3	2	14
24	-9	-8	-2

The list continues.
#	Molecule	BJeLR viability	RN4220 kill	Bead autofluor	PrP 5UTR inh
49	CN1CCc2c(sc3c2C(=O)NC(c2ccco2)N3)C1 (stereo not drawn)	-2	4.4	18769*	-10
50	COc1cccc(N=C(N)N)c1	-5	0.2	2432	-18
51	CCc1nc2ccccc2c(=O)n1-c1ccccc1[N+](=O)[O-]	-7	4.8	2218	-22
52	O=C(Nc1ccc(F)cc1)C1C(c2ccccc2)C1(Cl)Cl (stereo not drawn)	2	-13	2546	19
53	Cc1ccc(-c2n[nH]c(=O)c3ccccc23)cc1S(=O)(=O)NC(C)(C)C	-1	3.2	4016	-6
54	S=c1[nH]nc(-c2ccc3ccccc3n2)n1-c1cc(Cl)cc(Cl)c1	-2	7.5	2502	-24
55	CCCCc1ccc(NC=C2C(=O)OC3(CCCCC3)OC2=O)cc1	-3	2.3	3444	-9
56	O=c1c(CN2CCN(Cc3ccccc3)CC2)coc2ccc(Cl)cc12	-2	4.7	19830*	-23
57	Cc1ccc(OCC(=O)N2CCC(N3CC(C)CC(C)C3)CC2)cc1 (stereo not drawn)	4	1.9	4768	-9
58	CCCCCCN1C=C/C(=C\C=C(C#N)C#N)c2ccccc21	30	-1.5	2366	-4
59	CCN(c1ccccc1)S(=O)(=O)c1cc(C(=O)OC(C)C(=O)Nc2ccc3c(c2)OCCO3)ccc1C (stereo not drawn)	24	4.2	3796	-5
60	O=C(Nc1ccccc1Br)c1cc(=O)c2ccccc2o1	-1	5.8	3363	-70

#	ugtP null kill	Mtb hypoxia inh	Mtb hypoxia inh growth
49	3	2	2
50	11	1	4
51	10	2	7
52	-31	-3	-3
53	5	1	-1
54	5	4	2
55	2	3	3
56	1	6	4
57	6	5	-2
58	-6	25	4
59	4	2	1
60	-1	5	10

Next section.
#	Molecule	BJeLR viability	RN4220 kill	Bead autofluor	PrP 5UTR inh
61	O=C(CC(=O)Nc1cccc(Cl)c1)N/N=C\c1ccccc1	-13	nt	7506	-15
62	Cc1oc(-c2ccccc2F)nc1CS(=O)(=O)CC(=O)NCc1ccco1	1	2.0	5747	-32
63	CCN(CC)S(=O)(=O)c1ccc2oc(SCc3ccc(F)cc3)nc2c1	3	-2.3	2924	-16
64	COc1ccc(NS(=O)(=O)c2ccc(N3CCCC3)c(NC(=S)Nc3cccc(S(=O)(=O)N(C)C)c3)c2)cc1	10	3.4	nt	nt
65	Cc1cc(OCC(=O)Nc2cccc(S(=O)(=O)N3CCCCC3)c2)ccc1Cl	nt	-4.3	3676	0

#	ugtP null kill	Mtb hypoxia inh	Mtb hypoxia inh growth
61	nt	nt	nt
62	8	6	1
63	-1	3	3
64	9	10	1
65	-25	-9	10

Compounds as they come (roughly 4% active in at least one column).
